Assay outcomes: PubChem, several laboratories
Arbovirus anti: blocks arbovirus infection; arbovirus infection cell-based antiviral screen; inhibition, % at 10 µM; 200,000 tested, 0.37% active; AID 1251;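 active = inhibition from about 30%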;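 note: bluetongue infection of BSR cells; cell survival read as ATP light after 72 h; 0% = infected wells without compound and 100% = uninfected wells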
Mtb betalactam: beta-lactam sensitization of Mtb H37Rv; M. tuberculosis H37Rv growth with meropenem, percent inhibition; hits of this screen are not shown here; inhibition, % at 25 µM; 330,000 tested, 0.27% active;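 active = about 74% or more and at least 40 points above the plate without the antibiotic, then above 30% in a dose series; inconclusive = first-round hits that could not be retested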;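 note: growth measured after seven days incubation then overnight dye step; 0% = bacteria only wells and 100% = bacteria with antibiotic; twin plates without the antibiotic show which effects depend on it; some results filed as inactive read as strong as hits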
YopH inh: inhibitors of Yersinia enterocolitica YopH tyrosine phosphatase. inhibition, %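 (about 10 µM by stock and volumes)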. 140,000 tested, 0.16% active. fluorescence Ex485/Em525;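 active = inhibition of 50% or more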;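 note: controls were vehicle for no effect and minimum signal wells for full effect; inactives centre near -20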
RecA splice inh: inhibitors of M. tuberculosis RecA intein splicing. inhibition, %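 (about 9 µM by stock and volumes)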. cell-free RecA intein splicing, fluorescence. 290,000 tested, 0.75% active. P9WHJ3; in the data active = inhibition above about 30%; inconclusive = no clear call, values can overlap the other calls;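 note: 0% = vehicle wells and 100% = reference inhibitor control wells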
Target sequence (P9WHJ3 whole entry, looked up, canonical isoform): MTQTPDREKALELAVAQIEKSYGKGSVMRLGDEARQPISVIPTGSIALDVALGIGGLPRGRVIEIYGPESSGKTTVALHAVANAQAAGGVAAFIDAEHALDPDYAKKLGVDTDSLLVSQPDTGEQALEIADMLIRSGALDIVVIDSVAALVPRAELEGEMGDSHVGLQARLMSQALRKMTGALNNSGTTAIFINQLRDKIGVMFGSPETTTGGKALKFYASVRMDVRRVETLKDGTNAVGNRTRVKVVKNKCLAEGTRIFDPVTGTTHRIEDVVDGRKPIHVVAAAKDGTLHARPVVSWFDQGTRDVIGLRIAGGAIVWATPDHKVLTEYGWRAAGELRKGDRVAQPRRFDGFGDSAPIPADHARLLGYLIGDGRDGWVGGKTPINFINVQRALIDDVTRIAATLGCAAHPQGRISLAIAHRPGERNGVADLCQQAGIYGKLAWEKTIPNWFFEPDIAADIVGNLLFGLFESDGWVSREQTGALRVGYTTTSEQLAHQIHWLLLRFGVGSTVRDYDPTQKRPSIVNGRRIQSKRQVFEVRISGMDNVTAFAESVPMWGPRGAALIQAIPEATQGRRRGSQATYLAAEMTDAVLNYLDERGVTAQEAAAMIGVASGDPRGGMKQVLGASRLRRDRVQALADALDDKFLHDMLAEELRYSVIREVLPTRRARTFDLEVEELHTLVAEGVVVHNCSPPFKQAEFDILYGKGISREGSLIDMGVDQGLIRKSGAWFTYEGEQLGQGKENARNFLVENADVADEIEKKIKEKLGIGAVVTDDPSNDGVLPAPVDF
Mtb H37Rv: M. tuberculosis H37Rv growth inhibitors, H37Rv strain (AID 1626); 220,000 tested, 0.95% active; M. tuberculosis H37Rv growth inhibition; higher % means a stronger effect; inhibition, % at 10 µM, or IC50 in µM where a hit was titrated;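 active = confirmed in a dose series; inconclusive = inhibition above 80% but not taken into the dose series; inactive = below 80% or under 30% at every dose of the series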;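 note: bacteria incubated seven days before Alamar blue readout; 0% = bacteria only wells and 100% = bacteria with antibiotic wells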
Arbovirus anti repeat: further read-out of Arbovirus anti, marked with its call; inhibition, %; measured here: 10K subset replicate screen; many hits read low in the repeat;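 first of two repeat runs on a subset; 0% = infected and 100% = uninfected wells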
Active calls of the source: *; u = inconclusive; x = no result given.

SMILES | Arbovirus anti | Mtb betalactam | YopH inh | RecA splice inh | Mtb H37Rv | others
CCn1c(C(=O)N2CCC(C(=O)N3CCN(c4ccccn4)CC3)CC2)cc2sccc21 | 2 | 1 | -18 | 0.1 | 17% | Arbovirus anti repeat=-3
O=C(Nc1cccnc1)c1cc(-c2cccc(Br)c2)nc2ccccc12 | x | 84 | x | 16 | x
CC(C)Cn1c(SCC(=O)N2CCN(S(=O)(=O)c3ccccc3)CC2)nc2ccccc21 | -17 | -5 | -38 | 4.9 | -5%
CCOC(=O)CN1CC23C=CC(O2)C(C(=O)NC2CCCCC2)C3C1=O (centres undefined) | 4 | -7 | -3 | 1.4 | -6%
N#C/C(=C\c1ccc[nH]1)C(=O)N1CCCCC1 | x | -4 | x | -0.1 | -13%
COC(=O)c1cc2ccsc2n1CC(=O)N(C)c1ccccc1 | -12 | 13 | -18 | 3.1 | -2%
COc1ccc(Cl)cc1C(=O)Nc1nc2ccc(S(C)(=O)=O)cc2s1 | -7 | 0 | x | 0.6 | -3%
COn1c(=O)c(-c2ccc(C)cc2)[n+]([O-])c2ccccc21 | x | -5 | x | -2.2 | x
CCCCC(=O)OCCNC(=O)c1cc2ccccc2oc1=O | 5 | -9 | -59 | 0.3 | 9% | Arbovirus anti repeat=1
O=C(CCC1CCCCC1)Nc1ncn[nH]1 | -10 | 2 | 6 | -2.2 | 1%
COc1ccccc1NC(=O)C1=C(C)NC(SCC(=O)Nc2ccc(C(=O)O)cc2)=C(C#N)C1c1cccs1 (centres undefined) | x | 3 | x | 3.4 | -5%
COc1ccccc1NC(=O)CCN1CC(C)OC(C)C1 (centres undefined) | 3 | 4 | -8 | 1.5 | -6%
CCSc1ccccc1C(=O)N1CCN(c2ccc([N+](=O)[O-])cc2)CC1 | 4 | -6 | x | 2.6 | -4%
CCC(C)(C)NC(=O)c1ccccc1Oc1ccccc1 | 1 | 7 | x | 1.9 | 1%
CCOc1cc(NC(=S)NCCCOC)c(OCC)cc1NC(=O)c1cccs1 | -9 | 0 | -7 | -1.9 | 1%
O=c1c2ccccc2nnn1Cc1ccc(Br)cc1 | -17 | 4 | x | 7.1 | 6%
Cc1cc(NC(=O)CCC(=O)N(CC(=O)NC2CCCC2)c2ccc(Cl)c(Cl)c2)no1 | x | 5 | x | 1.0 | x
CC1CCC(NC(=O)CC(NC(N)=O)c2ccccc2Cl)CC1 (centres undefined) | x | -10 | x | -0.3 | x
O=C(NN1CCN(Cc2ccccc2Cl)CC1)c1ccc(Br)cc1 | -3 | 1 | x | -0.3 | -1%
CC1CCCCC1NC(=O)c1cc2ccccc2o1 (centres undefined) | -3 | 50 | -18 | -3.3 | 12%
CCOC(=O)c1ccc(NC(=O)COc2ccccc2CNCCO)cc1 | 7 | 71 | x | 0.6 | 92%
COc1cccc(/C=C2/SC(=S)N(CC(=O)NNC(=O)c3ccccc3O)C2=O)c1 | x | 1 | x | -2.9 | x
Cc1ccc(C)c(N2CCN(c3nc4ccccc4c(=O)n3Cc3ccccc3)CC2)c1 | 16 | 8 | 13 | 16 | 35%
FCCCOc1ccc(-c2ccnc3ncnn23)cc1 | 2 | 2 | x | 1.4 | 2%
O=S1(=O)CCC(NC(=S)N2CCCCCC2)C1 (centres undefined) | 1 | 10 | -28 | 0.3 | 9%

Reprinted from the part before: 4 compounds, then new ones.
SMILES | Arbovirus anti | Mtb betalactam | YopH inh | RecA splice inh | Mtb H37Rv | others
COc1cccc(/C=C2/SC(=S)N(CC(=O)NNC(=O)c3ccccc3O)C2=O)c1 | x | 1 | x | -2.9 | x
Cc1ccc(C)c(N2CCN(c3nc4ccccc4c(=O)n3Cc3ccccc3)CC2)c1 | 16 | 8 | 13 | 16 | 35%
FCCCOc1ccc(-c2ccnc3ncnn23)cc1 | 2 | 2 | x | 1.4 | 2%
O=S1(=O)CCC(NC(=S)N2CCCCCC2)C1 (centres undefined) | 1 | 10 | -28 | 0.3 | 9%
Cc1cc(NC(=O)CSc2nnc(-c3cccnc3)n2Cc2ccccc2)no1 | 8 | -7 | x | -0.1 | -2%
O=[N+]([O-])c1cccc(Cl)c1NCCNc1ncc(C(F)(F)F)cc1Cl | 0 | -2 | -7 | 1.9 | 3%
O=C(CCN1CCC(c2ccccc2)C1)c1ccccc1 (centres undefined) | 0 | 97 | -37 | 0.4 | 4%
CNC(=O)CC12CC3CC(CC(C3)C1)C2 | 13 | -9 | 5 | -1.2 | -2%
COc1ccc(C(=O)/C(=C/c2cccs2)c2nc3ccccc3o2)cc1 | -7 | 20 | -7 | 46* | 2%
O=C(Nc1ccccc1N1CCCC1)c1ccccc1F | x | 90 | x | 3.8 | x
Cc1cccc(-n2c(C)nc3cc(C(=O)N4CCC5(CC4)OCCO5)ccc32)c1 | -6 | -3 | -45 | -0.9 | -7%
CCOC(=O)c1c(N)c(C#N)c2n1CCCCC2 | 0 | 7 | -23 | 0.4 | -5%
CC(=O)/C(=C(/O)c1ccccc1)c1nc2ccccc2[nH]1 | -6 | 1 | x | x | 2%
CCN(CC)C(=O)CSc1ncnc2sccc12 | -5 | -2 | x | -0.4 | 3%
COc1cccc(C(=O)N2CCC(n3nccc3NC(=O)C(OC)c3ccccc3)CC2)c1 (centres undefined) | x | u | x | 4.1 | x
COc1cc(CCC(=O)Nc2sccc2C#N)cc(OC)c1OC | x | -9 | x | -0.8 | x
CCOc1ccc2nc(NC(=O)C(CC)Sc3nc(C)cc(=O)[nH]3)sc2c1 (centres undefined) | 30 | 96 | -11 | -1.1 | 36µM*
O=[N+]([O-])c1ccc(O)c(C=Nc2ccc3oc(Cc4ccc(Cl)cc4)nc3c2)c1 | -14 | 95 | x | 0.0 | 26µM*
O=C(Nc1ccc(Cn2ccnc2)cc1)c1cccc(C(F)(F)F)c1 | x | 9 | x | -1.3 | x
COc1cccc(-n2nc3c(=S)[nH]nc(C)c3c2C)c1 | -7 | -10 | -26 | -2.1 | x
CC1=C(C(=O)N2CCCC(N3CCN(c4cccc(Cl)c4)CC3)C2)OCCO1 (centres undefined) | x | 5 | x | 3.7 | x
Fc1ccccc1CNc1cc(Cl)cc(Cl)c1 | -8 | -1 | -28 | 10 | -1%
CC(=O)/C(=N/Nc1ccccc1C)N1CCOCC1 | -17 | -9 | -27 | -3.0 | -13%
CN(CCOc1ccc(Cl)cc1)C(=O)c1ccc2c(=O)n3c(nc2c1)CCC3 | x | -3 | x | -7.2 | x
CC(C)N(C1=CC(=O)OC12CCCCC2)C(C)C | x | -8 | x | -0.9 | -8%
O=C(/C=C/c1ccccc1)NCCS(=O)(=O)N1CCN(c2ccccc2)CC1 | x | -5 | x | -0.9 | x
Cc1nonc1CN(C)C(=O)c1ccc(OC2CCN(Cc3ccccn3)CC2)cc1 | 3 | -7 | x | 0.7 | 1%
CCc1ccc(OCCOCC(O)CN(CCO)CCO)cc1 (centres undefined) | 2 | -2 | -7 | -2.4 | -3%
COc1ccc(-c2cn(-c3ccc(C)c(C)c3)c(=S)[nH]2)cc1OC | x | 2 | x | -2.1 | x
Other entries follow:
SMILES | Arbovirus anti | Mtb betalactam | YopH inh | RecA splice inh | Mtb H37Rv | others
CCOC(=O)C1CCCN(C(=O)c2cc(S(=O)(=O)N3CCCCC3)ccc2Cl)C1 (centres undefined) | x | 1 | x | -1.0 | x
COc1cc2c(cc1OC)CN(C(=O)c1ccncc1)CC2 | x | 0 | x | -5.7 | x
O=S(=O)(c1cccnc1)N1CCn2cccc2C1c1ccccc1F (centres undefined) | x | -4 | x | -0.9 | x
Cc1ccccc1Sc1ncccc1[N+](=O)[O-] | x | 55 | x | -1.9 | x
OC12CCCCC1C(c1ccc3c(c1)OCO3)N(Cc1ccc(F)cc1)CC2 (centres undefined) | -24 | 0 | -3 | 5.2 | 7%
Cc1cccc(C2Nc3ccccc3C(=O)N2c2ccc(F)cc2)n1 (centres undefined) | -3 | -9 | -35 | -2.8 | -1%
CCOC(=O)c1c(-c2ccncc2)csc1N | -4 | 34 | -27 | 1.5 | 10%
CCOc1ccc(CN(C)CC(=O)Nc2cc(C)c(C)cc2[N+](=O)[O-])cc1 | -3 | 4 | x | x | 7%
CN1CC2(C)CN(C(c3ccccc3)c3ccccc3)CC(C)(C1)C2O (centres undefined) | 17 | -12 | -14 | 3.1 | -7%
O=C(Nc1ccc(F)c(Cl)c1)c1ccc2c(c1)OCO2 | x | -5 | x | 0.2 | x
CS(=O)(=O)N1CCN(c2ccc([N+](=O)[O-])c(NCc3cccnc3)c2)CC1 | 6 | 0 | x | 1.6 | 0%
O=C(NCc1ccc(F)cc1)C1CCC(CNS(=O)(=O)c2ccccc2)CC1 (centres undefined) | x | -2 | x | -0.6 | x
COC(=O)CCC(=O)N1CCCC(N2CCN(c3ccc(OC)cc3)CC2)C1 (centres undefined) | x | -3 | x | -4.6 | x
CCOC(=O)N1CCN(C(=O)C2CCN(S(=O)(=O)N(CC)CC)CC2)CC1 | 4 | -9 | -41 | 4.4 | -2%
CCOC(=O)N1CCC(c2cc(=O)n3[nH]cc(C(=O)OC)c3n2)CC1 | 0 | -5 | -34 | 2.5 | -2% | Arbovirus anti repeat=9
Cc1cc(C(F)(F)F)n2ncc(-c3ccc(F)cc3)c2n1 | 0 | -5 | -5 | 0.5 | 6%
CC(=O)N1CCN(C(=O)C2(NC(=O)Nc3ccc(C)cc3)CCCCC2)CC1 | x | -1 | x | -0.7 | x
COC(=O)c1nnn(CC(=O)Nc2cccc(OC)c2)c1C(=O)OC | 6 | -5 | 9 | -0.6 | -18%
COc1ccccc1S(=O)(=O)Cc1ccc(C(=O)NCc2ccc3c(c2)OCO3)o1 | 5 | -2 | -27 | 0.6 | -6% | Arbovirus anti repeat=6
O=C(CSc1nnc(-c2ccc(O)cc2)o1)N1CCOCC1 | 1 | 95 | -45 | -0.4 | 1%
COc1ccccc1C(=O)NNC1CC(=O)N(c2ccc3c(c2)OCCO3)C1=O (centres undefined) | -4 | -8 | -4 | -2.8 | 3%
CNC(=O)c1cc(C(=O)c2ccccc2Br)c[nH]1 | x | 5 | x | 1.0 | x
CC(C)CC(=O)Nc1nc2c(c(=O)[nH]1)CCCC2 | 2 | -6 | 2 | -0.4 | -10%
COc1cc([N+](=O)[O-])cc(/C=N/NC(=O)Cn2nccc2C)c1O | x | 40 | x | 0.9 | -4%
O=C(O)c1[nH]c2ccc(Cl)cc2c1CC(=O)N1CCN(C(=O)c2ccco2)CC1 | 2 | 24 | -44 | x | -9%
Going on with the list.
SMILES | Arbovirus anti | Mtb betalactam | YopH inh | RecA splice inh | Mtb H37Rv | others
C=CCOc1ccc(Cl)cc1CNC1CCCC1 | 7 | -6 | x | -3.8 | 6%
Cc1c(NC(=O)CSc2nnc3c4ccccc4n(CCc4ccccc4)c3n2)c(=O)n(-c2ccccc2)n1C | 4 | 4 | 4 | 4.9 | -8%
CC1CCN(CCCNC(=O)C2CCC(=O)N2C2CCCC2)CC1 (centres undefined) | -3 | 1 | -23 | 0.1 | -10%
O=C(N/N=C/c1ccccn1)c1ccc(NC(=O)c2cccc([N+](=O)[O-])c2)cc1 | -2 | -4 | x | -0.9 | -11%
O=C(NCCc1c[nH]c2ccccc12)C(=O)NCC(c1ccco1)N1CCN(c2ccccc2)CC1 (centres undefined) | -1 | -6 | -46 | -0.3 | 6%
OC1(CC#CCN2CCCCC2)c2ccccc2-c2ccccc21 | x | -2 | x | -0.4 | 0%
O=C(Nc1ccc(OC(F)F)c(Cl)c1)Nc1ccc2c(c1)OCO2 | -36 | 10 | -9 | -0.2 | -3%
CS(=O)(=O)N(CC(=O)Nc1ccccc1Sc1ccccc1)c1ccc(F)cc1 | -17 | -6 | -33 | 1.4 | 6%
CC1(C)CC(=O)C2=C(C1)Nc1nc(SCCN3CCOCC3)[nH]c(=O)c1C2c1cccs1 (centres undefined) | 9 | -2 | 2 | 0.3 | -9%
CCC(=O)NCCc1nc2cc(NC(=O)c3ccc(Cl)cc3)ccc2n1C | x | -2 | x | -1.7 | x
Cc1cccc(OCC(=O)NC2CCCc3ccccc32)c1C (centres undefined) | 1 | 2 | -15 | 1.6 | 13%
Cc1cc2c(nn1)CCc1c-2no[n+]1[O-] | x | 0 | x | 0.9 | 1%
CC(=O)c1sc(NC(=O)c2ccccc2F)nc1-c1ccccc1 | 3 | 5 | x | -2.1 | -5%
CCc1sc(N(C(=O)Cc2ccccc2)c2ccc(F)cc2)nc1-c1ccccc1 | -1 | -10 | -17 | -0.1 | -3%
CCCCOC(=O)Nc1nc2ccccc2s1 | 9 | -6 | 2 | 1.4 | -4%
CCOc1ccccc1NC(=O)c1ccc2c(c1)C(=O)N(CC)C2=O | x | -5 | x | -1.3 | x
Cc1nn(CC(=O)NCCN2CCOCC2)c(C)c1[N+](=O)[O-] | 3 | -11 | 1 | -1.1 | -5%
CC(C)c1ccc(C2CC(=O)N3CN(C)CSC3=C2C#N)cc1 (centres undefined) | 9 | -1 | -47 | 4.7 | -6% | Arbovirus anti repeat=5

Only part of the results is shown. The share of hits here may be higher or lower than overall.
